UCH37 DUB inh = blocks the human deubiquitinase UCH37; Q9Y5K5; purified proteasome/UCH37, Ub-AMC cleavage fluorescence; inhibition, % (concentration not given with the values); 330,000 tested, 0.33% active; AID 588478;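 active means mean of two replicates above 20%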;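 further: 0% = compound-free wells with enzyme and 100% = wells lacking proteasome; stock transfer was 100 nL into about 20 µL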
Target sequence (Q9Y5K5 whole entry, looked up): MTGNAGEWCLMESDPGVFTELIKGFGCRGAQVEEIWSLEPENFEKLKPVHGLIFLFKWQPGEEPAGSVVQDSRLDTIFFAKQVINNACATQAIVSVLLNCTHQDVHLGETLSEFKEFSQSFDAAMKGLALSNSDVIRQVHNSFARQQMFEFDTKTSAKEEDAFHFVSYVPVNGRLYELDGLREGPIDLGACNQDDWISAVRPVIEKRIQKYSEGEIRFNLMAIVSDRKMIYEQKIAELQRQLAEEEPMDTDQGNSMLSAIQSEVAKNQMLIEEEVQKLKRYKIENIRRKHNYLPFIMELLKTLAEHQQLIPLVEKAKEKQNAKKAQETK
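Test system – human UCH37 enzyme supplied as purified proteasome complex · Incubation – 30 min preincubation with enzyme, 25 min cleavage at room temperature · Detection – AMC fluorescence from Ub-AMC cleavage, excitation 355 nm, emission 460 nm · Benchmarks – no-proteasome wells (full inhibition) and compound-free wells (no inhibition)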
E coli growth = blocks Escherichia coli growth; OD600, 23 h; stronger effect = lower value; OD600 absorbance (test concentration not listed); 330,000 tested, 0.21% active;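 active means OD600 absorbance below the run mean of sample wells minus 3.6 SD, in any replicate, cut at about 0.56 in these data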;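 further: stock transfer was 300 nL into about 60 µL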
Active calls of the source: *. These rows are one share of the data; the hit share may differ from the screen's.

molecule,UCH37 DUB inh,E coli growth
C=CCN1C(=O)/C(=C/c2ccc(OC)cc2)SC1=Nc1nccs1,-5.4,0.74
Clc1ccc2c(NN=Cc3ccccc3Br)ccnc2c1,-6.0,0.61
COC(=O)C1=C(C)N=c2sc(=C3C(=O)Nc4ccccc43)c(=O)n2C1c1ccccc1 (stereo unspecified),10,0.76
Cc1ccc(-c2nnc3c4ccccc4c(C)nn23)cc1NC(=O)CN1CCOCC1,1.0,0.61
CCON=C1C(=O)N(c2ccccc2)c2ccccc21,2.3,0.65
O=C(O)c1cc(NC(=NS(=O)(=O)c2ccc(F)cc2)c2ccccc2)ccc1O,4.6,0.69
CCc1ccc(C=NNc2ncnc3nc[nH]c23)cc1,10,0.67
CCNc1nc(NCC)nc(NN=Cc2ccc(O)c(OC)c2)n1,0.2,0.64
CNCCCNC(=O)c1ccc(C=NO)nc1,2.6,0.7
COc1ccc(C=Nc2oc(C)c(C)c2C#N)c(OC)c1,0.3,0.68
Cc1cc(C(F)(F)F)n(-c2nc(C(=O)NN=Cc3ccc(F)cc3)cs2)n1,5.4,0.69
CNC(=S)NN=Cc1ccc(N2CCOCC2)s1,-6.9,0.65
CC(=NN1CCN(Cc2cccc3ccccc23)CC1)c1ccco1,3.7,0.71
Cc1ccn(CC(=O)NN=Cc2cc([N+](=O)[O-])ccc2O)n1,17,0.67
CC(CCc1ccco1)=NNC(=O)CCC(=O)Nc1ccc(Br)cc1,6.1,0.72

Profiles, looked up by structure. Order of screens: UCH37 DUB inh, E coli growth
`Cc1ccc(-c2nnc3c4ccccc4c(C)nn23)cc1NC(=O)CN1CCOCC1` is entered as 1.0, 0.61
`CNCCCNC(=O)c1ccc(C=NO)nc1` is entered as 2.6, 0.7
`COc1ccc(C=Nc2oc(C)c(C)c2C#N)c(OC)c1` is entered as 0.3, 0.68
`Cc1cc(C(F)(F)F)n(-c2nc(C(=O)NN=Cc3ccc(F)cc3)cs2)n1` is entered as 5.4, 0.69

Further compounds follow:
molecule,UCH37 DUB inh,E coli growth
O=C(NN=Cc1ccc2ncccc2c1)c1cccc([N+](=O)[O-])c1,5.8,0.67
Cc1cc(SCC(=O)NN=Cc2ccco2)nc2ccccc12,1.5,0.69
O=C(NN=Cc1cccs1)C1COc2ccccc2O1 (stereo unspecified),4.4,0.66
Cc1ccc(CN2CCN(N=Cc3ccc(C(=O)O)cc3)CC2)c(C)c1,1.6,0.64
O=C(NN=C/C=C/c1ccco1)C1COc2ccccc2O1 (stereo unspecified),9.5,0.63
CCCCCCCC(=O)NN=C(C)c1ccc(O)cc1O,-31,0.68
NCCCCCC(=O)NN=Cc1coc2ccccc2c1=O,-25,0.67
O=C(CN1CCSCC1)NN=Cc1ccc(F)cc1,1.2,0.74
O=c1c2c3nc4ccccc4nc3n(N=Cc3ccccn3)c2ncn1-c1ccccc1,-15,0.72
Cc1cccc(OCC(=O)NN=Cc2cccn2C)c1,6.2,0.67
COc1ccc(C(=O)NN=Cc2ccc(N3CCOCC3)o2)cc1OC,8.2,0.67
CC(=NNC(=O)c1ccc(C)cc1)C1C(=O)c2ccccc2C1=O,19,0.63
CC(=NO)c1no[n+]([O-])c1C(C)=NO,5.4,0.67
COc1cc(C=NNC(C)=O)ccc1OC/C=C/c1ccccc1,4.5,0.72
CC(/C=C/c1ccccc1)=NNC(=O)Cn1nnc(N)n1,1.1,0.64
CC(=NNc1ccc(C(F)(F)F)cc1[N+](=O)[O-])C(C)C,4.5,0.65
COc1cccc(C=Nn2c(COc3ccccc3)n[nH]c2=S)c1,3.8,0.65
O=C(NN=Cc1ccccc1)c1ccc(N2CCOCC2)c([N+](=O)[O-])c1,-0.7,0.7
Cc1ccc(N(CC(=O)NN=Cc2ccco2)S(=O)(=O)c2ccccc2)cc1,1.9,0.71
COc1ccc(Br)cc1C(=O)NN=Cc1ccc([N+](=O)[O-])cc1,7.5,0.73
CC(=NNC(=O)c1cc(Br)ccc1O)C(=NO)C(=O)Nc1ccccc1,6.4,0.63
C(=NNc1nc(N2CCCC2)nc(N2CCCC2)n1)c1ccccc1OCc1ccccc1,5.7,0.67
CC(=NN1CCN(Cc2cccc3ccccc23)CC1)c1cccnc1,-1.2,0.7
CC(C)NC(=S)NN=Cc1c[nH]c2ccccc12,-0.2,0.7
NC(=O)C(=NOC(=O)c1ccco1)c1nc(-c2ccc(Br)cc2)cs1,-0.4,0.66
CC(=NNC(=O)c1nnn(-c2nonc2N)c1-c1ccc2c(c1)OCO2)c1ccc(C)cc1,-10,0.66
COc1ccc(C=NNC(=O)c2ccc(=O)n(C)c2)cc1OC,2.5,0.72
CC1=NN(/C(=N/c2nnc(C)s2)Nc2ccccc2)[C@H](c2cccc3ccccc23)S1,5.3,0.72
Cc1onc(-c2ccccc2)c1C(=O)NN=C(N)COc1ccc(Cl)cc1,1.7,0.72
CC1CCN(c2ccc(C=NNc3nncn3N)cc2[N+](=O)[O-])CC1,13,0.68

Reprinted at random: three compounds from above
molecule,UCH37 DUB inh,E coli growth
CNCCCNC(=O)c1ccc(C=NO)nc1,2.6,0.7
Cc1cccc(OCC(=O)NN=Cc2cccn2C)c1,6.2,0.67
O=c1c2c3nc4ccccc4nc3n(N=Cc3ccccn3)c2ncn1-c1ccccc1,-15,0.72

The results go on:
molecule,UCH37 DUB inh,E coli growth
COc1cc(C=NN2CCN(c3ccccc3)CC2)cc(OC)c1OC(C)=O,0.7,0.71
CC(=NNC(=O)CCC(=O)Nc1ccccc1)c1cccs1,5.2,0.71
COc1cccc(C=NNC(=O)CSc2nnc(C)n2-c2ccccc2)c1OC,2.1,0.77
COc1ccc(OC)c(S(=O)(=O)NN=Cc2cn(CC(N)=O)c3ccccc23)c1,3.9,0.66
Cc1ccc(OCC(=O)NN=C2CC(=O)CC(C)(C)C2)c(Br)c1,3.1,0.7
CCOc1ccc(C=NNC(=O)c2cc3c(OC)cccc3[nH]2)cc1,-124,0.64
O=C(O)c1ccc(C=NNC(=O)c2ccc3c(c2)OCCO3)cc1,7.8,0.71
COc1ccccc1C=NNc1cc(C)nc(-n2nc(C)cc2C)n1,-42,0.7
Cc1ccsc1C=NNC(=O)c1ccc(-n2cccc2)cc1,5.8,0.7
CCOC(C)=Nn1c2nc3ccccc3nc2c2c(=O)n(C3CCCC3)c(C)nc21,2.5,0.69
O=C(NN=Cc1ccc([N+](=O)[O-])s1)c1cccc(Br)c1,6.5,0.71
Nc1nonc1-n1nnc(C(=O)NN=Cc2ccc(OCc3ccccc3F)cc2)c1CN1CCCCC1,-1.8,0.72
CC(=NN1CCN(Cc2ccc(Cl)cc2)CC1)c1ccc([N+](=O)[O-])cc1,2.9,0.67
Cc1ccc(C=NNC(=O)c2ccc3ccccc3c2)s1,-3.3,0.65
Cc1ccccc1C(=O)ON=C(N)c1ccncc1,0.2,0.71
O=C(CSc1nnc(-c2ccccc2)o1)n1c2c(c3ccccc31)CCCC2,2.4,0.74
Cc1nc2ccccc2n1N=Cc1ccc([N+](=O)[O-])s1,4.2,0.65
CCc1ccc(C=Nn2c(C)cc(C)c(C#N)c2=O)cc1,5.7,0.66
Cc1ccc(Nc2nc(NN=Cc3ccc4c(c3)OCO4)nc(N3CCOCC3)n2)cc1,2.0,0.73
CCCCC(=NNC(=O)c1ccc(Br)o1)c1ccccc1,11,0.68
Cn1c(=NNC(=O)c2cccc(OC(F)F)c2)sc2ccccc21,7.7,0.7
Cc1n[nH]c(=S)n1N=Cc1c(O)ccc2ccccc12,0.0,0.69
NC(=NOC(=O)c1ccccc1Cl)c1ncc([N+](=O)[O-])s1,1.0,0.6
O=C(Oc1ccc(C=NNC(=O)c2ccccc2F)cc1)c1ccccc1,-0.4,0.7
CC(=NNC(=O)C1COc2ccccc2O1)c1cc2ccccc2o1 (stereo unspecified),0.5,0.72
Cc1cc(C=NNC(=O)c2ccc(O)cc2)c(C)n1CC(C)C,-1.6,0.7
CC(=NNC(=O)c1ccccc1O)c1cccc(NC(=O)c2ccccc2)c1,2.0,0.63
COC(=O)C=c1sc(=C(C#N)C(=O)NCc2ccco2)n(-c2ccc(C)cc2)c1=O,5.2,0.81
Cc1cc(C)n2nc(SCC(=O)NN=Cc3ccc(F)cc3)nc2n1,0.6,0.64
COc1ccc(S(=O)(=O)NN=Cc2ccc([N+](=O)[O-])o2)c(OC)c1,0.7,0.51*
O=C(CN1CCSCC1)NN=Cc1ccc(F)c(F)c1,-0.7,0.73
Cc1ccc(NN=C(Sc2nnnn2-c2ccccc2)C(=O)c2ccccc2)cc1,1.8,0.69
Cc1cc(C=NNC(=O)c2ccc(CN3CCOCC3)cc2)c(C)n1-c1ccccc1,0.6,0.72
CCOc1ccc(S(=O)(=O)NN=C2CC(c3ccccc3)Oc3ccccc32)cc1 (stereo unspecified),4.6,0.7
CCc1ccc(NC(=O)c2ccc3ncsc3c2)cc1,-0.7,0.62
CC(=NNC(=O)c1ccc(NS(=O)(=O)c2cccs2)cc1)c1ccncc1,0.1,0.66
O=C(NN=Cc1ccccc1O)C(=O)N1CCCCCC1,1.6,0.69
COc1ccc(C(=O)NN=Cc2ccccc2OC(=O)c2ccccc2)cc1,-9.1,0.68
O=C(NN=Cc1ccc(F)cc1)c1ccc(-n2cnnn2)cc1,6.6,0.66
COc1ccc(C(C)=NNc2ccc(C(=O)O)cc2)cc1OC,12,0.67
N#Cc1ccccc1C=NNc1nc(-c2ccccc2)c2cc(Br)ccc2n1,-0.2,0.79
Cc1ccccc1NC(=O)C(=O)NN=Cc1cccc(Br)c1,0.8,0.73
CC(=NNC(=O)CCC(=O)NN=C(C)c1ccc(C)o1)c1ccc(C)o1,6.2,0.64
C/C(C=NNC(=O)c1cc(-c2ccc3ccccc3c2)n[nH]1)=C\c1ccco1,-4.0,0.74
Cc1cccc(C=NNC(=O)c2cc(C3CC3)nc3ccccc23)n1,0.0,0.71
O=C1CCCC(=NNC(=O)COc2ccc(Cl)cc2)C1,2.0,0.68
Clc1ccc(-c2ccc(C=NNc3nncc(-c4ccccc4)n3)o2)cc1,9.9,0.78
CCOC(=O)C(=NNc1ccc(Cl)cc1)c1csc(Nc2ccccc2)n1,2.0,0.69
CC(C)(C)OC(=O)NCCCCCC(=O)NN=Cc1coc2ccccc2c1=O,-29,0.6
O=C(NCCCN1CCOCC1)C(=O)NN=Cc1ccccc1O,4.2,0.68
CCNc1nc(NCC)nc(NN=Cc2ccc([N+](=O)[O-])o2)n1,8.4,0.65
COc1cc(C=NN2CCN(C3c4ccccc4-c4ccccc43)CC2)cc(OC)c1O,1.2,0.68
O=S(=O)(NN=Cc1ccccc1F)c1ccccc1,-1.3,0.65
CCc1ccc(OCC(=O)NN=C2CC(=O)c3ccccc32)cc1,7.5,0.64
O=C(NN=C1CC2CC=CC12)c1ccc(Br)cc1 (stereo unspecified),4.1,0.7
CCCc1c(C(=O)NN=Cc2sccc2C)nnn1-c1nonc1N,3.3,0.69
CC(=NNC(=O)CC(=O)NN=C(C)c1ccc([N+](=O)[O-])cc1)c1ccc([N+](=O)[O-])cc1,3.4,0.6
CCOC=Nc1c(C#N)c2c(c(=S)n1C)COC(C)(C)C2,0.3,0.72
Oc1ccc(C=NNC(=S)NCCN2CCOCC2)c(O)c1,-3.6,0.7
Cn1c(=O)c2c(ncn2CC(=O)NN=Cc2ccco2)n(C)c1=O,-2.4,0.7

More compounds follow.
molecule,UCH37 DUB inh,E coli growth
Cc1ccc(NC(=O)Cn2cnc3sc(C(=O)NCCN(C)C)c(C)c3c2=O)cc1Cl,6.7,0.65
CC(=NOCC(=O)OCC(=O)NCc1ccccc1)c1ccc2c(c1)OCO2,1.8,0.7
Cc1ccc(C=NNC(=O)Cn2nccc2C)o1,2.7,0.68
O=C(NN=Cc1cccc([N+](=O)[O-])c1)c1cccc(Br)c1,2.8,0.71
O=C(NN=C1CC2C=CCC12)c1cccs1 (stereo unspecified),4.2,0.74
S=C(NN=Cc1ccc(Br)cc1)N1CCCCC1,1.3,0.69
O=C(NN=Cc1ccc(Cl)s1)c1ccccc1[N+](=O)[O-],9.4,0.67
CC(=NNC(=O)C(=O)Nc1cc(C)ccc1C)c1ccncc1,3.1,0.7
CCC(=NNc1ccc([N+](=O)[O-])cc1)c1ccccc1,-2.7,0.64
CC(CC(O)c1ccc2ccccc2n1)=NO (stereo unspecified),3.8,0.73
CC(CC(=O)Nc1ccc(F)cc1)=NNC(=O)COc1ccccc1,5.3,0.66
Cc1nn(C)c(C(=O)NN=Cc2ccc(C(F)(F)F)cc2)c1[N+](=O)[O-],0.1,0.71
Cc1nc2c(C)cccn2c1C(=O)NN=Cc1ccccc1[N+](=O)[O-],8.9,0.67
O=C(NN=Cc1cccs1)C1CC(=O)N(c2ccccc2)C1 (stereo unspecified),2.7,0.7
Cc1ccc(C=Nn2c(C)n[nH]c2=S)o1,7.9,0.68
COC(=O)c1cc(NC(=O)c2cccc(C(F)(F)F)c2)c(=O)oc1CC=NOCc1cccc(Cl)c1Cl,2.7,0.74
C(=NN1CCN(c2ccccn2)CC1)c1ccccn1,5.0,0.7
Cc1c(C=NNC(=O)c2ccccc2O)c2ccccn2c1C(=O)c1ccc(F)cc1,1.0,0.69

Source: PubChem (ICCB-Longwood Screening Facility, Harvard Medical School)
